Source: PubChem (ICCB-Longwood Screening Facility, Harvard Medical School)
Sa growth 42C – S. aureus growth inhibition; S. aureus RN4220 growth, OD600, 20 h, 42 °C; active compounds read low; relative growth, % (no concentration beside the values); 170,000 compounds, 0.53% hits; AID 720641;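 active = growth at 42 °C up to 50% and 20 or more points under that at 30 °C, or under 10% at both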;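 also: 300 nL library stock went into each well; scaled to the means of positive and negative controls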
HCMV NEC inh – inhibitors of HCMV UL50-UL53 nuclear egress complex interaction; inhibition, % (concentration not given with the values); HTRF UL50-UL53 interaction, normalized percent inhibition; 190,000 compounds, 0.15% hits; AID 1918969;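 active = both replicates at 50% or more, plus weaker picks with an unusually low signal ratio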;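 also: stock transfer was 100 nL into about 20 µL; 0% = negative control wells and 100% = wells with untagged competitor protein; inactives centre near -12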
GIV-Gai inh – inhibitors of GIV GBA-motif binding to rat Galpha-i3; 210,000 compounds, 0.42% hits; Galpha-i3/FITC-GIV peptide fluorescence polarization, 90 min; active compounds read low; scaled: aluminum fluoride 0%, vehicle 100%; P08753; AID 1224905; percent of control (FP), % (test concentration not listed);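 active = replicate mean at 85% of control or lower, very high polarization wells dropped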;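 also: lower values mean more displacement of the GIV peptide from Galpha-i3; wells of about 15 µL received 100 nL stock; the first replicate is given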
Target sequence (P08753 whole entry, looked up): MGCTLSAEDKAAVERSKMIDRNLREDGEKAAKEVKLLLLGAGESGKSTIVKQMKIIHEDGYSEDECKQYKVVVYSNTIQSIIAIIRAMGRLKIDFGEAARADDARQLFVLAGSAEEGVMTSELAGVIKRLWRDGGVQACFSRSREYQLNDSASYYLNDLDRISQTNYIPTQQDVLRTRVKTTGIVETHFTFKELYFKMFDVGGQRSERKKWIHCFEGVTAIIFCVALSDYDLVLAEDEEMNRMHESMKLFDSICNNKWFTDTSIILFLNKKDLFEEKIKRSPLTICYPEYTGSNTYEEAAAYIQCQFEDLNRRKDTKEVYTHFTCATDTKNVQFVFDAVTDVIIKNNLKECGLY
Sa growth 42C second temp – second read-out of Sa growth 42C, no call of its own (marks repeat the call); relative growth, %; measured here: growth at 30 °C;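 optical density after 20 h as mean of two plates; 100% = untreated growth and lower means inhibition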
Active calls of the source: *; x = no result given; & = joins results of further samples.

Order of values: Sa growth 42C, Sa growth 42C second temp, HCMV NEC inh, GIV-Gai inh
Cc1cc2nc3s/c(=C\c4ccc(N5CCOCC5)c([N+](=O)[O-])c4)c(=O)n3c2cc1C
→ x, x, -22, 100
CCc1ccc(NC(=O)COc2ncnc3ccccc23)cc1
→ 102, 98, 0, x
CN1/C(=C\C(=O)COC(=O)CCN2C(=O)C3CC=CCC3C2=O)C(C)(C)c2ccccc21 (stereo unspecified)
→ 98, 96, -18, x
CC12CCC(c3nnc(SCC(=O)Nc4cccc(C(F)(F)F)c4)nc31)C2(C)C (stereo unspecified)
→ 66, 33, x, 97
COCCOc1ccc(C(F)(F)F)cc1NCC(=O)Nc1cccnc1Cl
→ 104, 88, -11, x
CCOc1ccccc1N=C1SC(CC(=O)Nc2ccccc2)C(=O)N1Cc1ccco1 (stereo unspecified)
→ 86, 89, -11, x
CCOC(=O)c1cnc2c(C)cc(Cl)cc2c1NCCc1ccc(OC)c(OC)c1
→ 108, 84, -15, 101
N#Cc1cccc(NC(=O)CSc2ccccc2)c1
→ 110, 83, -12, 102
Cc1cc(N)c(N)cc1C
→ 52, 66, -84, x
Cc1cc(C)c(S(=O)(=O)NCCS(=O)(=O)N2CCN(c3ccccc3)CC2)c(C)c1
→ 93, 55, x, 101
CCOC(=O)/C(C#N)=C1\CCc2ccccc21
→ 102, 84, 0, 103
CCOC(=O)C1CCN(C(=O)CN2CCN(Cc3ccccc3)C(=O)C2=O)CC1
→ x, x, 24, 108
O=C(CN1C(=O)CCc2cc(S(=O)(=O)N3CCCCC3)ccc21)N1CCc2ccccc21
→ x, x, -30, 108
COc1ccc(-n2nc3cc(C)c(NC(=O)c4ccc5c(c4)OCO5)cc3n2)cc1
→ 105, 87, -17, 104
Cc1nn(C)c(C)c1CCN(C)C(=O)Nc1ccc(F)c(Cl)c1
→ x, x, 9, 101
COc1ccccc1/C=C/C(=O)Nc1ccccc1C(=O)NCc1ccco1
→ 84, 91, 6, x
CC(=O)NC1C(=O)NC(=S)N(c2ccccc2)C1=O (stereo unspecified)
→ 85, 81, x, 98
CC(=O)Nc1ccc(NC(C)=O)c(C(F)(F)F)c1
→ 98, 98, -17, 99
Cc1sc(NC(=O)c2ccccc2)c(C(Nc2ccccn2)c2ccc3c(c2)OCO3)c1C (stereo unspecified)
→ x, x, -34, 108
N/C(=N\O)c1ccc(Oc2ccc(C(F)(F)F)cn2)cc1
→ 110, 100, 2, 95
CCCN1C(=O)c2ccccc2NC1c1ccc(OC)c(COc2ccc([N+](=O)[O-])cc2)c1 (stereo unspecified)
→ x, x, -5, 108
COc1ccc(CC(=O)NC2CC(=O)N(c3cccc(F)c3)C2)cc1 (stereo unspecified)
→ 97, 90, x, 96
COc1cc(OC)c(NC(=O)c2cnn(-c3ccccc3)c2-n2cccc2)cc1Cl
→ 101, 91, 0, 99
Cc1ccc2c(COC(=O)c3ccc(-n4cnnn4)cc3)cc(=O)oc2c1
→ 86, 87, -24, x
CCOc1ncccc1C(=O)NC(C)CCc1ccccc1 (stereo unspecified)
→ 63, 80, -4, x
COc1ccc(S(=O)(=O)Nc2ccc(F)cc2C)cc1OC
→ 99, 102, -9, 100
Cn1cc(C(=O)Nc2ccc(F)c(Cl)c2)c2[nH]c(=O)n(-c3ccc(F)cc3)c(=O)c21
→ x, x, -24, 99
Cc1ccc(NC(=O)CSc2nc(=O)n(CCCN(C)C)c3c2CCC3)cc1F
→ 95, 95, x, 98
CC(=C(C#N)C#N)c1ccccc1
→ 78, 48, -5, x
CN(C)c1ccc(C(=O)OCC(=O)c2cccc(Cl)c2)cc1
→ 104, 87, -34, x
Cc1ccc(S(=O)(=O)c2nc(-c3ccc(F)cc3)oc2N2CCC(C)CC2)cc1
→ x, x, -5, 99
COC(=O)Cc1c(C)c2cc3c(c(C)c2oc1=O)OCN(CCc1ccc(OC)cc1)C3
→ 103, 87, -46, 98
N#CC1=C(N)OC(C2CC2)=C(C#N)C1c1cccs1 (stereo unspecified)
→ 120, 96, -14, 137
Cc1ccc(S(=O)(=O)c2nc(-c3ccco3)oc2SCC(C)C)cc1
→ 102, 86, -20, 103
Cc1nc2ccccc2nc1C(=O)NCCCN1CCN(c2ccccc2)CC1
→ 105, 92, -44, 99
COc1cc(C(=O)Nc2nnc(S(=O)(=O)N(C)c3ccccc3)s2)cc(OC)c1OC
→ 71, 34, 0, 102
O=C1CN(S(=O)(=O)CCOc2ccccc2)CC(=O)N1CCc1ccccc1
→ 108, 97, -7, 98
O/N=C/c1ccnc(SCc2ccc(Cl)cc2)n1
→ 111, 83, -31, 96
C=CCNC(=O)C1CC(=O)N(c2ccc(OCC(=O)Nc3ccc(F)cc3)cc2)C1 (stereo unspecified)
→ 101, 107, 5, x
COc1cc2c(cc1OC)C(c1ccccc1F)OC(=O)C2 (stereo unspecified)
→ 99, 91, 3, x
O=C(Cc1cccc2ccccc12)NCc1ccc(F)cc1
→ 115, 95, x, 103
COc1cc(NC(=O)C(NC(=O)C2CCC(C)CC2)C(C)C)cc(OC)c1OC (stereo unspecified)
→ 102, 100, -9, 106
Cc1nc2ccc3c(c2s1)CCCC3
→ 82, 95, -7, 103
O=C1/C(=N\O)CC(OC(=O)c2ccccc2)C/C1=N/O (stereo unspecified)
→ 101, 105, -39, 98
CCCCNC(=O)c1sc2ncccc2c1-n1cccc1
→ 95, 85, x, 104
CC(C)NCC(O)Cn1c2ccc(Cl)cc2c2cc(Cl)ccc21 (stereo unspecified)
→ x, x, -6, 109&104
COc1ccc(-n2nc(C(=O)Nc3ccc(C)cn3)c3c4ccccc4n(C)c3c2=O)cc1Cl
→ 98, 86, -22, 103
CC(C)OC(=O)CSc1nc2c(-c3ccccc3)c[nH]c2c(=O)[nH]1
→ x, x, -32, 105
Fc1cc(F)c2ncc3c(-c4ccccc4)nn(-c4cccc(Cl)c4)c3c2c1
→ 96, 108, 6, 100
CCN1C(=O)c2cc(C(=O)N3CCN(c4ccc(F)cc4)CC3)nn2CC1(C)C(=O)NC1CCCC1 (stereo unspecified)
→ x, x, -6, 105
CC(C)(C)c1nnc(/N=C/NO)s1
→ 98, 95, x, 104
CCOC(=O)NC(=S)Nc1ccc(F)cc1
→ 100, 89, 15, 107
O=C(Nc1nccs1)C1CC2CCC1C2 (stereo unspecified)
→ 120, 76, -24, x
Cc1cccc(N2CCN(c3ncc(C(=O)O)cc3NS(=O)(=O)c3cccc(F)c3)CC2C)c1 (stereo unspecified)
→ x, x, -28, 101
CCOC(=O)c1cnc(N2CCCCC2)[nH]c1=O
→ 109, 93, -4, 104
CCOC(=O)CSc1nnc(CNC(=O)c2cccs2)n1-c1ccccc1
→ 107, 92, x, 107
O=c1[nH]c2cc(S(=O)(=O)CCO)ccc2o1
→ 104, 75, -8, 95
COc1cc(OC)c(NC(=O)CN2CCCN(Cc3ccccc3C)S2(=O)=O)cc1Cl
→ 70, 86, x, 99
Cc1cc(Oc2nc3cc(Cl)ccc3s2)c2cc(Cl)ccc2n1
→ 110, 100, 8, 96
CCN1C(=O)NC(c2cc(Br)c(O)c(OC)c2)C(C(=O)OCCOC)=C1C (stereo unspecified)
→ x, x, -7, 103

(next part)
Order of values: Sa growth 42C, Sa growth 42C second temp, HCMV NEC inh, GIV-Gai inh
Cc1nc2ccc(S(=O)(=O)N(C)CC(=O)Nc3ccc(Br)c(C)c3)cc2s1
→ 101, 84, -32, 103
C[N+](C)(C)CC(O)COc1ccccc1 (stereo unspecified)
→ 96, 93, -33, 105
COC(=O)c1cc(CSc2nc3ccccc3c(=O)n2C)oc1C
→ 88, 99, 9, x
O=C(O)CCCC(=O)N1CCN(c2ccccn2)CC1
→ 92, 93, 0, 98
CCN(C(=O)NCc1noc2ccccc12)c1ccccc1
→ 91, 93, 7, 103
COc1ccc(-c2cc3c(N4CCC(C(=O)O)CC4)nccn3n2)cc1
→ x, x, -84, 107
CCOC(=O)c1noc(C)c1-c1csc(Nc2cc(C(F)(F)F)cc(C(F)(F)F)c2)n1
→ 95, 92, 0, 102
CN1/C(=C\C(=O)Nc2cccnc2)c2ccccc2CC1(C)C
→ 89, 101, -41, 92
CC1=C(C(=O)Nc2ccccn2)C(c2ccc(O)cc2)n2nnnc2N1 (stereo unspecified)
→ x, x, -8, 104
CCC(CO)NC(=O)C(=O)Nc1c2c(nn1-c1ccc(F)cc1)CSC2 (stereo unspecified)
→ 124, 86, x, 99
CCCCOc1ccc(NC(=O)c2cc(=O)c3cc(Br)ccc3o2)c2cccnc12
→ x, x, -8, 99
CCc1nc(-c2ccc(N3CCN(C(=O)c4cc5ccccc5[nH]4)CC3)cc2)no1
→ x, x, -25, 104
O=C(Nc1ccc(-c2nc3ncccc3o2)cc1)c1ccc2c3c(cccc13)CC2
→ x, x, -36, 105
COc1ccc(C(=O)Cn2ccnc2C(=O)NCc2ccc(C)cc2)cc1
→ 110, 84, x, 106
CCOC(=O)c1c(C)n(-c2ccccc2)c2ccc(OC(=O)c3ccc([N+](=O)[O-])cc3[N+](=O)[O-])cc12
→ x, x, -16, 103
CCOC(=O)N/N=C1\CCCc2ccccc21
→ 99, 86, -43, 102
Cc1ccc(-n2c(=O)c3c(cnn3C)n(CC(=O)Nc3ccccc3C)c2=O)cc1
→ 110, 88, -14, 98
CN(CC(=O)N1CCCC1)S(=O)(=O)c1ccc2[nH]c3c(c2c1)CCCC3
→ 94, 91, x, 95
Cc1ccc(CN(C(=O)COc2ccc(C(C)(C)C)cc2)C2CCS(=O)(=O)C2)o1 (stereo unspecified)
→ 107, 95, -4, 98
O=C(O)CSCc1ccsc1
→ 78, 94, -18, x

14 compounds already listed, ordered by length of the SMILES, descending.
Order of values: Sa growth 42C, Sa growth 42C second temp, HCMV NEC inh, GIV-Gai inh
CCOC(=O)c1noc(C)c1-c1csc(Nc2cc(C(F)(F)F)cc(C(F)(F)F)c2)n1
→ 95, 92, 0, 102
Cc1ccc(CN(C(=O)COc2ccc(C(C)(C)C)cc2)C2CCS(=O)(=O)C2)o1 (stereo unspecified)
→ 107, 95, -4, 98
CCc1nc(-c2ccc(N3CCN(C(=O)c4cc5ccccc5[nH]4)CC3)cc2)no1
→ x, x, -25, 104
Cc1nc2ccc(S(=O)(=O)N(C)CC(=O)Nc3ccc(Br)c(C)c3)cc2s1
→ 101, 84, -32, 103
CN(CC(=O)N1CCCC1)S(=O)(=O)c1ccc2[nH]c3c(c2c1)CCCC3
→ 94, 91, x, 95
CCCCOc1ccc(NC(=O)c2cc(=O)c3cc(Br)ccc3o2)c2cccnc12
→ x, x, -8, 99
CC1=C(C(=O)Nc2ccccn2)C(c2ccc(O)cc2)n2nnnc2N1 (stereo unspecified)
→ x, x, -8, 104
CN1/C(=C\C(=O)Nc2cccnc2)c2ccccc2CC1(C)C
→ 89, 101, -41, 92
COC(=O)c1cc(CSc2nc3ccccc3c(=O)n2C)oc1C
→ 88, 99, 9, x
CCN(C(=O)NCc1noc2ccccc12)c1ccccc1
→ 91, 93, 7, 103
O=C(O)CCCC(=O)N1CCN(c2ccccn2)CC1
→ 92, 93, 0, 98
CCOC(=O)N/N=C1\CCCc2ccccc21
→ 99, 86, -43, 102
C[N+](C)(C)CC(O)COc1ccccc1 (stereo unspecified)
→ 96, 93, -33, 105
O=C(O)CSCc1ccsc1
→ 78, 94, -18, x

Going on with the list.
Order of values: Sa growth 42C, Sa growth 42C second temp, HCMV NEC inh, GIV-Gai inh
CC(C)N(C(=O)c1sc2ccccc2c1Cl)C(C)C
→ 89, 96, -33, x
CCc1cccc(NC(=O)C2CCN(S(=O)(=O)c3cccc(-c4noc(C)n4)c3)CC2)c1
→ 111, 99, x, 109
Cc1cc(NC(=O)c2ccno2)no1
→ 110, 93, 3, 100
CN(C)S(=O)(=O)c1cccc(C(=O)CN2C(=O)COc3ccccc3C2=O)c1
→ x, x, -19, 106
CCOc1ccc(NC(=O)CCn2c(=O)c3cccn3c3cccnc32)cc1
→ 122, 84, x, 104
CC(O)(CCO)C12CC3CC(CC(C3)C1)C2 (stereo unspecified)
→ 117, 82, -18, x
O=C(COc1ccccc1)Nc1nc2ccccc2[nH]1
→ 114, 90, 11, x
O=C(CCn1cnc2c([nH]c3ccc(F)cc32)c1=O)NCc1ccccc1F
→ x, x, -8, 95
CCCn1c(N)nc2ccccc21
→ 118, 92, -5, x
Cc1cccc(NC(=O)c2oc3ccccc3c2NC(=O)Cc2coc3ccc(C(C)C)cc23)c1
→ 110, 93, 4, 107
Cc1ccc(-c2noc(-c3ccccc3OCC(=O)Nc3ccccc3[N+](=O)[O-])n2)cc1
→ 96, 83, -19, 101
FC(F)(F)c1ccccc1NC(=S)N1CCC2(CC1)OCCO2
→ 104, 87, -7, 108
COc1ccc2c3c([nH]c2c1)C(C)N(CCC(=O)NN)CC3 (stereo unspecified)
→ x, x, -24, 103
O=C(O)[C@@H]1CCCN1C(=O)c1ccccc1F
→ 92, 93, -5, x
COc1ccc(S(=O)(=O)Nc2cccc(C(F)(F)F)c2)cc1OC
→ 86, 73, -28, 101
CC(C)CSc1ncnc2c1sc1nc3c(cc12)COC(C)(C)C3
→ 106, 87, -14, 99
CSc1ccncc1C(=O)Nc1cc(Cl)cc(Cl)c1
→ 108, 79, -5, 104
COC(=O)c1ccccc1S(=O)(=O)N1CCN(S(=O)(=O)c2cccs2)CC1
→ 111, 92, -6, x
Cc1ccc(NC(=O)CNC2CCS(=O)(=O)C2)cc1C (stereo unspecified)
→ 99, 91, -10, x
